MEP2 TOR yeast – modulators of MEP2-GFP levels in yeast, primary screen, S. cerevisiae, multiplex flow cytometry, MLPCN library. 0.51% of 330,000 active. GFP response vs DMSO, % at 10 µM. S. cerevisiae MEP2-GFP strain, 3 h; 100% = DMSO control level;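 active means GFP response versus DMSO above a set limit, roughly screen mean plus 3 SD, cut at about 180% in these data; inconclusive means fewer than 70 cells counted for a yeast strain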;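 further: median GFP fluorescence of the barcode-gated MEP2-GFP cells per well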
LAP4 TOR yeast – modulators of LAP4-GFP expression in yeast, primary screen, S. cerevisiae, multiplex flow cytometry, MLPCN library. GFP response vs DMSO, % at 10 µM. 0.34% of 320,000 active. 3 h; median GFP as percent of DMSO wells;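 active means GFP response vs DMSO above a set limit, about the screen mean plus 3 SD, cut at about 150% in these data; inconclusive means under 70 cell events counted for the yeast strain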
CIT2 TOR yeast – modulators of CIT2-GFP expression in yeast, primary screen, S. cerevisiae, GFP fusion, multiplex flow cytometry, MLPCN library | S. cerevisiae CIT2-GFP strain, 3 h; 100 means same as DMSO wells | 0.065% of 320,000 active | GFP response vs DMSO, % at 10 µM;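 active means GFP response relative to DMSO above a set limit, near the screen mean plus 3 SD, cut at about 150% in these data; inconclusive means Fewer than 70 cells measured for a yeast strain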;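 further: ratio of well median GFP fluorescence to mean of DMSO wells on the plate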
RPL19A TOR yeast – RPL19A-GFP expression modulators in yeast, primary screen, cell-based, S. cerevisiae, multiplex flow cytometry, MLPCN; S. cerevisiae RPL19A-GFP strain, 3 h; hits give low values; percent response vs DMSO, % at 10 µM; 0.3% of 330,000 active; AID 2025, 2009;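 active means percent response vs DMSO below 50%; inconclusive means fewer than 70 events counted for the yeast strain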;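 further: median channel GFP fluorescence of the barcoded RPL19A-GFP strain; ratio of sample median GFP to plate DMSO average so 100% = DMSO; lower means less RPL19A-GFP as with rapamycin TOR inhibition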
AGP1-GFP MLPCN – modulators of AGP1-GFP expression in yeast TOR pathway, primary screen, cell-based, multiplex flow cytometry, S. cerevisiae, MLPCN library. 3 h; GFP as percent of DMSO wells. GFP response vs DMSO, % at 10 µM. 0.02% of 320,000 active;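 active means GFP response relative to DMSO above a set limit, near screen average plus 3 SD, cut at about 150% in these data; inconclusive means fewer than 70 cells counted for the yeast strain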;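 further: median GFP channel fluorescence of the gated AGP1 strain per well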
The depositor's hits bear a star; u = inconclusive; & = joins results of further samples. Some of the compounds tested. The share of hits here may be higher or lower than overall.

SMILES	MEP2 TOR yeast	LAP4 TOR yeast	CIT2 TOR yeast	RPL19A TOR yeast	AGP1-GFP MLPCN
Cn1ncc(Br)c1C(=O)O	107.6	99.2	108.3	103.5	101.5
CC(C(=O)O)c1cccc(C(=O)c2ccccc2)c1 (centres undefined)	92.5	91.1	83.9	96.2	87.2
O=S(=O)(c1ccc2nc(SCc3cccc(Cl)c3)[nH]c2c1)N1CCOCC1	104.4	105.3	100.9	100.3	105.8
N[C@@H](Cc1cc(I)c(Oc2ccc(O)c(I)c2)c(I)c1)C(=O)O	97.9&103.4	122.3&111.2	79.3&77.2	98.7&99.2	94.7&87.6
CN(C)c1ccc(O)c2c1CC1CC3C(N(C)C)C(=O)C(C(N)=O)=C(O)[C@@]3(O)C(=O)C1=C2O (some centres undefined)	u	u	u	u	u
COC(=O)Nc1sc(C)nc1-c1ccccc1	107.6	98.0	100.9	98.8	99.4

At a glance, three of the compounds above:
SMILES	MEP2 TOR yeast	LAP4 TOR yeast	CIT2 TOR yeast	RPL19A TOR yeast	AGP1-GFP MLPCN
Cn1ncc(Br)c1C(=O)O	107.6	99.2	108.3	103.5	101.5
CC(C(=O)O)c1cccc(C(=O)c2ccccc2)c1 (centres undefined)	92.5	91.1	83.9	96.2	87.2
O=S(=O)(c1ccc2nc(SCc3cccc(Cl)c3)[nH]c2c1)N1CCOCC1	104.4	105.3	100.9	100.3	105.8

Three structures out of the list, ordered by formula weight, low to high:
SMILES	MEP2 TOR yeast	LAP4 TOR yeast	CIT2 TOR yeast	RPL19A TOR yeast	AGP1-GFP MLPCN
COC(=O)Nc1sc(C)nc1-c1ccccc1	107.6	98.0	100.9	98.8	99.4
O=S(=O)(c1ccc2nc(SCc3cccc(Cl)c3)[nH]c2c1)N1CCOCC1	104.4	105.3	100.9	100.3	105.8
N[C@@H](Cc1cc(I)c(Oc2ccc(O)c(I)c2)c(I)c1)C(=O)O	97.9&103.4	122.3&111.2	79.3&77.2	98.7&99.2	94.7&87.6

High-throughput results as filed in PubChem BioAssay.
